UUG fidelity: modulators of start codon recognition fidelity in yeast; 350,000 tested, 0.13% active; activity score, % at 18.7 µM; S. cerevisiae UUG-firefly luciferase reporter, luminescence/redox ratio; AID 602363;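 active = replicate mean at a twofold rise or more, about +100% in these data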;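 also: firefly luciferase made from a UUG start codon reports start codon fidelity; reporter light over untreated wells divided by growth signal over untreated wells; some hits fall short of that in this replicate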
Env fusion inh: inhibitors of HIV Env-mediated cell fusion; HeLa-JRFL Env/CEM21 cell fusion, luciferase; inhibition, % at 12.3 µM; 360,000 tested, 1.1% active;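 active = mean replicate inhibition score of at least 50 and every replicate individually at or above 50; inconclusive = only one of the two criteria met; inactive = mean below 50 and not all replicates reaching 50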;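 also: 0% = plate neutral controls and 100% = maraviroc near 300 nM; one replicate is shown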
Numbers without * were called inactive; ? = inconclusive; [ ] = remark or other dose. The list is partial; count on the stated rates, not on these rows.

SMILES	UUG fidelity	Env fusion inh
C[C@@H]1CCCCO[C@@H](CN(C)C(=O)c2ccccc2)[C@H](C)CN([C@H](C)CO)C(=O)c2cc(NC(=O)Nc3ccccc3)ccc2O1	7	-21[16.7 µM]
CCC(=O)Nc1ccc2c(c1)C(=O)N(C)[C@@H]1CC[C@@H](CC(=O)NCCOC)O[C@@H]1CO2	4	-2[16.7 µM]
COCC#Cc1ccc2c(c1)O[C@@H](CN(C)Cc1ccccc1F)[C@@H](C)CN([C@H](C)CO)S2(=O)=O	-7	2[16.7 µM]
Cc1ccc(S(=O)(=O)Nc2ccc3c(c2)C(=O)N([C@H](C)CO)C[C@@H](C)[C@@H](CN(C)C(=O)NC(C)C)OCCCC[C@@H](C)O3)cc1	61	-136[16.7 µM]
CCC(=O)N(C)C[C@H]1Oc2ncc(-c3ccc(C(=O)N(C)C)cc3)cc2C(=O)N([C@H](C)CO)C[C@@H]1C	7	-9[16.7 µM]
O=C(C[C@H]1C=C[C@@H](NC(=O)Cc2ccccn2)[C@@H](CO)O1)NCCc1ccncc1	11	3[16.7 µM]
C[C@H](CO)N1C[C@H](C)[C@H](CN(C)Cc2ccccn2)Oc2ncc(Br)cc2C1=O	-12	-7[16.7 µM]
Cc1noc(C)c1S(=O)(=O)Nc1ccc2c(c1)C(=O)N([C@@H](C)CO)C[C@H](C)[C@H](CN(C)S(C)(=O)=O)O2	-6	0[16.7 µM]
COCCOC(=O)N1C(=O)[C@@]2(c3cc(C#CCCO)ccc31)[C@H](c1ccccc1OCCO)N1[C@H](c3ccccc3)[C@H](c3ccccc3)OC(=O)[C@H]1[C@@H]2C(=O)N1CCN(c2ncccn2)CC1	7	-3[16.7 µM]
C[C@H](CO)N1C[C@H](C)[C@H](CN(C)Cc2ccc(C(=O)Nc3ccccc3N)cc2)Oc2c(NC(=O)C3CC3)cccc2C1=O	3	35[16.7 µM]
C[C@@H]1CN([C@H](C)CO)S(=O)(=O)c2ccc(C3=CCCC3)cc2O[C@@H]1CN(C)C(=O)Cc1ccncc1	6	2[16.7 µM]
C[C@@H]1CN([C@H](C)CO)C(=O)Cc2cc(NC(=O)Cc3ccccc3)ccc2O[C@@H]1CN(C)S(=O)(=O)c1cn(C)cn1	-26	-9[16.7 µM]
O=C(CC1CC1)N[C@H]1CC[C@@H](CCNS(=O)(=O)c2ccc(F)cc2)O[C@@H]1CO	1	4[16.7 µM]
CC(C)C(=O)Nc1ccc2c(c1)C(=O)N(C)[C@H]1CC[C@H](CC(=O)NCC3CC3)O[C@@H]1CO2	-2	6[16.7 µM]
C[C@@H]1CN([C@@H](C)CO)C(=O)CCCn2cc(nn2)CO[C@H]1CN(C)C(=O)Nc1ccc(C(F)(F)F)cc1	5	5[16.7 µM]
C[C@@H](O)C#Cc1ccc2c(c1)O[C@H](CN(C)Cc1cccnc1)[C@@H](C)CN([C@@H](C)CO)S2(=O)=O	10	11[16.7 µM]
C[C@@H]1CCCCO[C@H](CN(C)C(=O)NC2CCCCC2)[C@@H](C)CN([C@H](C)CO)C(=O)c2cc(NC(=O)CCCCCC(=O)Nc3ccccc3N)ccc2O1	13	44[16.7 µM]
C[C@@H]1CN([C@@H](C)CO)C(=O)c2cc(C#CC3CC3)cnc2O[C@@H]1CN(C)S(C)(=O)=O	17	-15[16.7 µM]
C[C@@H]1CN([C@@H](C)CO)C(=O)c2cc(NS(=O)(=O)c3cn(C)cn3)ccc2O[C@@H](C)CCCCO[C@H]1CN(C)S(=O)(=O)c1cccs1	-1	27[16.7 µM]
O=C(C[C@@H]1CC[C@@H]2[C@H](COC[C@H](O)CN2CCC(F)(F)F)O1)NCC1CCCCC1	-2	2[16.7 µM]
COCC(=O)N(C)C[C@@H]1Oc2cc(C#CCN(C)C)ccc2S(=O)(=O)N([C@H](C)CO)C[C@@H]1C	-4	-4[16.7 µM]
COc1ccccc1NC(=O)N1C[C@H](O)COC[C@H]2O[C@@H](CC(=O)N3CCC(Cc4ccccc4)CC3)CC[C@@H]21	5	4[16.7 µM]
COCC#Cc1cnc2c(c1)C(=O)N([C@@H](C)CO)C[C@@H](C)[C@H](CN(C)C(=O)c1ccc(F)cc1)O2	-3	-9[16.7 µM]
O=C(C[C@H]1C[C@@H]2c3cc(NC(=O)C4CCC4)ccc3O[C@@H]2[C@H](CO)O1)NCc1ccncc1	-11	-5[16.7 µM]
CCC(=O)N(C)C[C@H]1Oc2ncc(C#Cc3ccc(OC)cc3)cc2C(=O)N([C@H](C)CO)C[C@H]1C	0	16[16.7 µM]

Shown comma-delimited: entries from further up
SMILES,UUG fidelity,Env fusion inh
O=C(C[C@@H]1CC[C@@H]2[C@H](COC[C@H](O)CN2CCC(F)(F)F)O1)NCC1CCCCC1,-2,2[16.7 µM]
COCC(=O)N(C)C[C@@H]1Oc2cc(C#CCN(C)C)ccc2S(=O)(=O)N([C@H](C)CO)C[C@@H]1C,-4,-4[16.7 µM]
COc1ccccc1NC(=O)N1C[C@H](O)COC[C@H]2O[C@@H](CC(=O)N3CCC(Cc4ccccc4)CC3)CC[C@@H]21,5,4[16.7 µM]

(next part)
SMILES	UUG fidelity	Env fusion inh
C[C@@H]1CN([C@@H](C)CO)C(=O)c2cc(NC(=O)Cn3cnnn3)ccc2O[C@@H]1CN(C)CC1CC1	2	-6[16.7 µM]
O=C(CC1CC1)Nc1ccc2c(c1)[C@@H]1C[C@@H](CC(=O)NC3CCCCC3)O[C@H](CO)[C@@H]1O2	-3	-13[16.7 µM]
C[C@@H]1CN([C@@H](C)CO)C(=O)c2cc(NC(=O)c3ccncc3)ccc2O[C@H]1CN(C)Cc1ccc(Oc2ccccc2)cc1	3	16[16.7 µM]
C[C@@H]1CN([C@@H](C)CO)C(=O)c2cc(C#Cc3ccncc3)cnc2O[C@@H]1CN(C)S(=O)(=O)c1ccccc1F	-2	36[16.7 µM]
O=C(C[C@H]1C[C@H]2c3cc(NC(=O)Nc4ccccc4)ccc3O[C@H]2[C@@H](CO)O1)NCc1ccccn1	-14	10[16.7 µM]
C[C@H]1CN([C@@H](C)CO)S(=O)(=O)c2ccc(-c3ccc(F)cc3)cc2O[C@@H]1CN(C)C	-15	-13[16.7 µM]
COc1ccc(S(=O)(=O)N(C)C[C@H]2OCCCC[C@@H](C)Oc3ccc(NC(=O)CCCN(C)C)cc3C(=O)N([C@@H](C)CO)C[C@@H]2C)cc1	15	-2[16.7 µM]
C[C@@H]1CCCCO[C@@H](CN(C)C(=O)Nc2ccc3c(c2)OCO3)[C@H](C)CN([C@@H](C)CO)C(=O)c2cc(NC(=O)C3CCCCC3)ccc2O1	-1	1[16.7 µM]
COCC(=O)Nc1ccc2c(c1)[C@H]1C[C@@H](CC(=O)N3CCN(C)CC3)O[C@@H](CO)[C@H]1O2	10	27[16.7 µM]
Cc1noc(C)c1NC(=O)Nc1ccc2c(c1)C(=O)N([C@H](C)CO)C[C@@H](C)[C@H](CN(C)Cc1ccccc1)O2	-17	0[16.7 µM]
Cc1noc(C)c1NC(=O)NCC[C@@H]1CC[C@@H](NC(=O)Nc2cccc(Cl)c2)[C@@H](CO)O1	0	6[16.7 µM]
CCC(=O)N[C@@H]1CC[C@@H](CCNS(=O)(=O)c2ccc(Cl)cc2)O[C@@H]1CO	-7	-18[16.7 µM]
C[C@@H]1CN([C@H](C)CO)C(=O)Cc2cc(NC(=O)CCC(F)(F)F)ccc2O[C@H]1CN(C)S(=O)(=O)c1ccc(Cl)cc1	11	-20[16.7 µM]
C[C@@H]1CCCCO[C@@H](CN(C)CC2CCCCC2)[C@H](C)CN([C@H](C)CO)C(=O)c2cc(NC(=O)CCCCCC(=O)Nc3ccccc3N)ccc2O1	-10	-18[16.7 µM]
C[C@H]1CN([C@@H](C)CO)C(=O)c2cccc(NS(=O)(=O)c3ccc(F)cc3)c2O[C@@H]1CN(C)S(=O)(=O)c1ccc(Cl)cc1	-5	-42[16.7 µM]
O=C(N[C@H]1CC[C@@H](CCn2cc(C3(O)CCCC3)nn2)O[C@@H]1CO)C1CCCC1	-15	-8[16.7 µM]
C[C@H]1CN([C@@H](C)CO)C(=O)c2cc(-c3cncnc3)cnc2O[C@@H]1CN(C)Cc1ccccc1	-18	21[16.7 µM]
CO[C@@H]1CN(C)C(=O)c2ccc(NS(C)(=O)=O)cc2OC[C@@H](C)N(CC2CCOCC2)C[C@@H]1C	-4	5[16.7 µM]
O=C(C[C@@H]1C=C[C@H](NC(=O)Nc2ccccc2F)[C@@H](CO)O1)NCc1ccc(Cl)cc1	-11	-9[16.7 µM]
C[C@H]1CN([C@@H](C)CO)C(=O)c2cccc(N(C)C)c2O[C@@H]1CN(C)Cc1ccc2c(c1)OCO2	5	6[16.7 µM]
C[C@H](CO)N1C[C@H](C)[C@@H](CN(C)C(=O)NC2CCCCC2)Oc2ccc(N(C)C)cc2CC1=O	2	5[16.7 µM]
COc1ccc(S(=O)(=O)Nc2cccc3c2O[C@H](CN(C)C(=O)Nc2ccc4c(c2)OCO4)[C@H](C)CN([C@H](C)CO)C3=O)cc1	14	-15[16.7 µM]
C[C@H]1CN([C@@H](C)CO)C(=O)Cc2cc(NS(=O)(=O)c3ccccc3)ccc2O[C@H]1CN(C)Cc1ccc(Oc2ccccc2)cc1	9	-18[16.7 µM]
O=C(NCC[C@H]1CC[C@H](NS(=O)(=O)c2ccc(F)cc2)[C@@H](CO)O1)Nc1ccc(Cl)cc1	22	1[16.7 µM]
C[C@@H]1CCCCO[C@@H](CN(C)Cc2ccc(C(=O)O)cc2)[C@H](C)CN([C@@H](C)CO)C(=O)c2cc(NC(=O)c3ccncc3)ccc2O1	-7	-17[16.7 µM]

Compounds above containing two or more sulfur atoms:
SMILES	UUG fidelity	Env fusion inh
Cc1noc(C)c1S(=O)(=O)Nc1ccc2c(c1)C(=O)N([C@@H](C)CO)C[C@H](C)[C@H](CN(C)S(C)(=O)=O)O2	-6	0[16.7 µM]
C[C@@H]1CN([C@@H](C)CO)C(=O)c2cc(NS(=O)(=O)c3cn(C)cn3)ccc2O[C@@H](C)CCCCO[C@H]1CN(C)S(=O)(=O)c1cccs1	-1	27[16.7 µM]
C[C@H]1CN([C@@H](C)CO)C(=O)c2cccc(NS(=O)(=O)c3ccc(F)cc3)c2O[C@@H]1CN(C)S(=O)(=O)c1ccc(Cl)cc1	-5	-42[16.7 µM]

Next section
SMILES	UUG fidelity	Env fusion inh
CO[C@@H]1CN(C)C(=O)c2cc(NS(=O)(=O)c3ccccc3)ccc2OC[C@@H](C)N(Cc2ccccn2)C[C@H]1C	0	13[16.7 µM]
CC(C)NC(=O)Nc1ccc2c(c1)C(=O)N([C@H](C)CO)C[C@H](C)[C@@H](CN(C)S(=O)(=O)c1cccs1)OCCCC[C@@H](C)O2	13	20[16.7 µM]
CCC(=O)N(C)C[C@H]1Oc2cc(C3=CCCC3)ccc2S(=O)(=O)N([C@@H](C)CO)C[C@H]1C	26	10[16.7 µM]
C[C@@H]1CCCCO[C@H](CN(C)S(=O)(=O)c2ccc(F)cc2)[C@@H](C)CN([C@H](C)CO)C(=O)c2cc(NC(=O)c3ccncc3)ccc2O1	-2	-8[16.7 µM]
C[C@@H]1CCCCO[C@@H](CN(C)C(=O)Nc2ccc(F)cc2)[C@@H](C)CN([C@H](C)CO)C(=O)c2cc(NC(=O)Nc3cccc4ccccc34)ccc2O1	-20	-14[16.7 µM]
Cc1ccc(S(=O)(=O)Nc2ccc3c(c2)C(=O)N([C@@H](C)CO)C[C@H](C)[C@@H](CN(C)S(=O)(=O)c2ccccc2)OCCCC[C@H](C)O3)cc1	-2	31[16.7 µM]
C[C@H](CO)N1C[C@H](C)[C@H](CN(C)C)Oc2ccc(NC(=O)Nc3cccc4ccccc34)cc2C1=O	10	0[16.7 µM]
C[C@@H]1CN([C@H](C)CO)C(=O)c2cccc(NC(=O)c3ccc(-c4nccs4)cc3)c2O[C@@H]1CN(C)S(C)(=O)=O	-7	-24[16.7 µM]
COc1ccc(S(=O)(=O)Nc2cccc3c2O[C@H](CN(C)Cc2ccc(-c4ccccc4)cc2)[C@H](C)CN([C@H](C)CO)C3=O)cc1	2	-5[16.7 µM]
CO[C@@H]1CN(C)C(=O)c2cc(NC(=O)C3CC3)ccc2OC[C@H](C)N(C(=O)c2ccncc2)C[C@H]1C	6	?
C[C@@H](NC(=O)C[C@H]1C=C[C@@H](NC(=O)CN2CCOCC2)[C@@H](CO)O1)c1ccccc1	6	-13[16.7 µM]
Cc1ccc([C@H]2C[C@H](n3cc(C4CC4)nn3)[C@@H](O)CN2Cc2cccs2)cc1	-2	9
C[C@@H]1CN([C@H](C)CO)C(=O)c2cc(C#CC3(O)CCCC3)cnc2O[C@H]1CN(C)Cc1ccccc1	-4	8[16.7 µM]
CCC(=O)N(C)C[C@@H]1Oc2cc(C#CC3CC3)ccc2S(=O)(=O)N([C@@H](C)CO)C[C@H]1C	10	-28[16.7 µM]
Cc1noc(C)c1NC(=O)N(C)C[C@H]1OCCCC[C@@H](C)Oc2ccc(NC(=O)c3ccncc3)cc2C(=O)N([C@@H](C)CO)C[C@H]1C	-8	-13[16.7 µM]
COc1ccc(NC(=O)Nc2ccc3c(c2)[C@H]2C[C@@H](CC(=O)N[C@@H](C)c4ccccc4)O[C@@H](CO)[C@H]2O3)cc1	-14	-2[16.7 µM]
C[C@@H]1CN([C@@H](C)CO)C(=O)c2cc(NC(=O)c3ccccc3)ccc2O[C@@H](C)CCCCO[C@@H]1CN(C)S(=O)(=O)c1cccs1	8	15[16.7 µM]
C[C@@H]1CN([C@H](C)CO)C(=O)c2cccc(NS(=O)(=O)c3cccs3)c2O[C@@H]1CN(C)Cc1ccc(Cl)c(Cl)c1	13	90*[16.7 µM]
C[C@@H]1CN([C@@H](C)CO)S(=O)(=O)c2ccc(-c3cncnc3)cc2O[C@@H]1CN(C)C(=O)C1CCC1	4	8[16.7 µM]

High-throughput results deposited in PubChem BioAssay by Broad Institute.
